Assay outcomes from PubChem.
miR-21 reporter: raises the signal of a miR-21 reporter; HeLa miR-21 FLuc reporter, luciferase, 48 h; Potency, µM (titrated, usually from 38.3 µM), for the others: top-dose reporter change, positive = more light; 340,000 tested, under 10 active; active = well fitted rising curve with a large enough effect; inconclusive = small, poorly fitted or top-dose-only effect; inactive = no such curve, though single readings can be large or run the other way;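 also: % of control where 0% means no effect; miR-21 action dims this reporter so a rising signal means less miR-21 action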
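HeLa cells stably expressing CMV-driven firefly luciferase with a downstream miR-21 binding sequence, endogenously expressing miR-21, were treated with titrations (up to about 40uM final) for 48 hours at 37 degree Celsius. Luciferase luminescence was read after lysis.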
Rango dissoc inh: prevents RanGTP from dissociating the Rango-importin beta complex. AID 540253. Potency, µM (titrated, usually from 46.1 µM), without a hit: at the highest dose activity change, negative = inhibition. 340,000 compounds, 0.071% hits. Biochemical FRET Rango-importin beta, RanGTP-induced dissociation. O95149+P62826; active means falling FRET ratio curve, often poorly fitted, with flat reads before Ran was added; inconclusive means other falling curves, or compound fluorescence or quenching; inactive means flat or rising ratio curve;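 also: potency is read from the fitted curve at half-maximal effect; % of control where 0% means no effect; nearly all actives have a fitted effect of over 45% in size; -100% = wells without RanGTP and RCC1; the record marks most hits as doubtful in a second field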
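Rango/importin beta premix (0.1/0.25 uM final), PBS + 1 mM DTT + 0.02% Tween-20 + 0.1% BSA; cpd 5 min RT; FRET pre-read; + RanGTP-RCC1 (0.6 uM Ran, 2 mM GTP, 0.2 uM RCC1); 45 min RT; FRET post-read, ex 430, em 486/530 nm.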
GLA inh pH 4.5: alpha-galactosidase A (human) inhibition, pH 4.5; 230,000 tested, under 10 active; purified enzyme, 4-MU-alpha-Gal fluorescence, pH 4.5; AID 1467; activity change, negative = inhibition, % at 105 µM; P06280; inconclusive = small, poorly fitted or top-dose-only inhibition, or a rising curve; inactive = flat fitted curve, though single readings scatter; no compound was filed as active;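 also: 0% = full activity with enzyme and -100% = basal without enzyme; dose as in the result columns while the protocol names 77 µM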
Rango complex inh: inhibitors of Rango-importin beta complex formation; Q14974; Rango CFP/YFP FRET sensor + importin beta, 45 min; Potency, µM (highest dose often 92.2 µM), for the others: at the highest dose inhibition of complex formation; 340,000 compounds, 0.031% hits; AID 540263; active = rising FRET ratio curve, often small or poorly fitted; inconclusive = mostly compound fluorescence or quenching in the first reads; inactive = flat curves in all reads;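 also: potency is read from the fitted curve at half-maximal effect; 0% = DMSO wells and 100% = buffer wells lacking importin beta; nearly all actives have a fitted effect of over 15% in size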
Target sequence (Q14974 whole entry, looked up): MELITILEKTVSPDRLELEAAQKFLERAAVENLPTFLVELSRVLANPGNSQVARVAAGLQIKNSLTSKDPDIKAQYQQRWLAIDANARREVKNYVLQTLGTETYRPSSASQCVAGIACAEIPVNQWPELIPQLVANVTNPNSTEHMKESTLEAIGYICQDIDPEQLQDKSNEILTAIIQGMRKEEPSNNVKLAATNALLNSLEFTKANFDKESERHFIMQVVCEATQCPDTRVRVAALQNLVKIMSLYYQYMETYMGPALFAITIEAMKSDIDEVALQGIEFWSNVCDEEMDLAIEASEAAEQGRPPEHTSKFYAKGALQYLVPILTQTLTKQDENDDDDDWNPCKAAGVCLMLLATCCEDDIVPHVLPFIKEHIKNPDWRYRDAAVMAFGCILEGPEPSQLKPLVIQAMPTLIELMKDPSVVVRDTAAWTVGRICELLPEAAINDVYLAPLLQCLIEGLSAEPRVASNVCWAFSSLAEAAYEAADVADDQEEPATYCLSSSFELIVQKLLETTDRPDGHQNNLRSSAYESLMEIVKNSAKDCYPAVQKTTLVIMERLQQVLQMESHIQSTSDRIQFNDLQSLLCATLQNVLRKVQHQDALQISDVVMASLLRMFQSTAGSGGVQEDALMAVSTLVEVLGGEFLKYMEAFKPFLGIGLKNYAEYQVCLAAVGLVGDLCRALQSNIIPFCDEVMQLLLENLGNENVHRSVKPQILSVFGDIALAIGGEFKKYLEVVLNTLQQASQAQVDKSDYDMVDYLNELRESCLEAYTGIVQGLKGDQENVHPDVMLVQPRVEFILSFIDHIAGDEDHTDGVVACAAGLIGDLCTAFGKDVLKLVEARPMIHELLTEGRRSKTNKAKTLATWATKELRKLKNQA
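FRET biosensor (snurportin 1 IBB flanked by EYFP and cerulean), 50 nM, with compound 5 min, then 0.125 microM importin beta in PBS, 1 mM DTT, 0.02% Tween-20, 0.1% BSA. CFP/YFP ratio read after 45 min at room temperature; pre-read flags interference.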
The depositor's hits bear a star; u = inconclusive; x = no result given; & = joins results of further samples.

miR-21 reporter,Rango dissoc inh,GLA inh pH 4.5,Rango complex inh,mol
x,-26%,x,1.4%,O=C1CN(S(=O)(=O)c2cccc(Cl)c2Cl)CCN1
x,-1%,x,-0.8%,CC(Cc1ccccc1)N1CCCC1=O (stereo not drawn)
-6%,1%,x,3.9%,CC1(C)CC(NS(=O)(=O)c2ccc(C(C)(C)C)cc2)CC(C)(C)N1
x,16%,x,-0.2%,COc1ccc(S(=O)(=O)Nc2cc(S(=O)(=O)N3CCOCC3)ccc2OC)cc1
-39%,1%,-2,-4.9%,CNC(=S)NNC(=O)c1ccc(C(C)(C)C)cc1
-2%,17%,-1,u,COc1cccc(C(=O)COC(=O)C(C)N2C(=O)c3ccccc3C2=O)c1 (stereo not drawn)
x,-9%,1,-4.3%,COCCN1C(=O)N[C@@H](c2cccc(C(F)(F)F)c2)[C@H](C(=O)OC)[C@H]1C
0%,12%,1,-4.7%,O=C(Nc1ccccc1)C1=C[C@@H](c2coc3ccccc3c2=O)C[C@@H](OCc2ccc(CO)cc2)O1
-4%,1%,-5,-0.3%,COc1ccccc1C1C(C#N)=C(N)Oc2c1c(-c1ccccc1)nn2-c1ccccc1 (stereo not drawn)
8%,-6%,-15,4.3%,O=c1c2ccccc2nc2n1C(CSCc1ccccc1)CS2 (stereo not drawn)
x,-1%,x,-0.1%,CC(=O)NC(CC(=O)Nc1ccc(S(=O)(=O)Nc2nccs2)cc1)c1ccccc1 (stereo not drawn)
-28%,0%,-20,-0.2%,COc1cccc(-c2cc3nc4c(c(N5CCC6(CC5)OCCO6)n3n2)CCCC4)c1
x,-12%,x,-0.2%,Cc1ccc(OCCC(=O)OCC(=O)Nc2ccc(C)cc2Cl)cc1
0%&-6%,-12%,x,-0.8%,COCCCNC(=O)CN1C(=O)CSc2ccc(S(=O)(=O)N3CCOCC3)cc21
x,13%,x,0.1%,CC(C)n1ncc2c(C(=O)Nc3ccc(S(C)(=O)=O)cc3)cc(C3CC3)nc21
-1%,-11%,1,0.0%,CN1CCN(c2ccc([N+](=O)[O-])cc2/C=N/NC(=O)c2ccc(F)cc2)CC1
3%,16%,x,1.6%,N#Cc1c(Cl)nsc1NCCN1CCOCC1
3%,-9%,x,4.1%,CCN1C(=O)C(CC(=O)Nc2ccc(F)cc2)N(Cc2ccco2)C1=S (stereo not drawn)
x,6%,x,5.7%,CC(=O)c1ccc2c(c1)CCN2
-11%,-3%,1,-3.2%,CC(=O)Nc1ccc(S(=O)(=O)c2ccc(N)cc2)cc1
-56%,29%,2,0.2%,Cc1ccc(OC(=O)COc2ccccc2)c(-n2nc3ccccc3n2)c1
-14%,1%,-4,-2.9%,COc1ccc(/C=N/NC(=S)NCC2CCCO2)cc1 (stereo not drawn)
0%,-22%,-2,-3.8%,Cc1ccc(SCc2ccc(C(=O)NCc3cccnc3)cc2)cc1
-6%,28%,-4,0.3%,CCC(C(=O)OC)n1cnc2c(cnn2-c2ccc(Cl)cc2)c1=O (stereo not drawn)
0%,6%,6,2.1%,O=C(COC(=O)/C=C/c1cccc([N+](=O)[O-])c1)NCc1ccco1
1%,2%,-2,2.8%,O=C(O)CC/C(=N/NC(=O)CNC(=O)Cc1ccccc1)c1ccccc1
-1%,1%,-21,-0.8%,COc1ccc(-c2csc3ncn(CC(=O)N4CCOCC4)c(=O)c23)cc1
-9%,-3%,8,0.8%,O=C(O)CCCCCCC1C(=O)NC(=O)N1CCC(O)C1CCCCC1 (stereo not drawn)
-36%,3%,5,-0.9%,CC(C)(C)NC(=O)Cn1nnc(-c2cccs2)n1
-46%,0%,-3,8.9%,Cn1c(SCc2c(Cl)cccc2Cl)nnc1-c1cccs1
19%,u,0,-0.3%,CNS(=O)(=O)c1ccc(Oc2ccc(S(=O)(=O)NC)cc2)cc1
-2%,-5%,x,0.0%,CCn1c(SCC(=O)Nc2cc(OC)ccc2OC)nc2c(c1=O)SCC2
-1%,13%,-10,0.2%,CC(C)(C)NC(=S)N/N=C/c1c(Cl)cccc1Cl
11%,-2%,-2,-1.8%,CC(=O)Nc1ccc(S(=O)(=O)Nc2cccc(-c3csc(C)n3)c2)cc1
-1%,-7%,x,4.7%,CCOc1ccc(Cc2c(C)[nH]c3ccc(C(=O)O)cc3c2=S)cc1
-51%,1%,x,3.2%,N/C(=N\OC(=O)c1cccc(C(F)(F)F)c1)c1cnccn1
1%,-13%,x,-0.6%,CC(=O)Nc1cc[n+](CC(=O)c2cccc([N+](=O)[O-])c2)cc1
0%,0%,-18,-1.4%,CCCc1nc(SCC(=O)N2CCCc3ccccc32)c2c(=O)n(C)c(=O)n(C)c2n1
-27%,4%,x,4.1%,Cc1ccccc1CNC(=O)COc1ccccc1
3%,6%,-2,-0.4%,COc1cccc(-c2noc(C3CCCN(C(=O)CC(C)(C)C)C3)n2)c1 (stereo not drawn)
-7%,-6%,x,0.0%,Brc1ccc(NC(c2ccccc2)c2ccncc2)cc1 (stereo not drawn)
-1%,11%,x,0.0%,CSCCNC(=O)c1ccc(OC2CCN(S(=O)(=O)N(C)C)CC2)cc1
1%,1%,x,-1.6%,CC1CCCN(C(=O)Cn2nnc(-c3ccc(S(C)(=O)=O)cc3)n2)C1 (stereo not drawn)
-2%,-5%,x,-0.3%,O=C(NC1CC2CCCC(C1)N2Cc1ccccc1)c1cccc(F)c1 (stereo not drawn)
3%,-1%,-10,-0.5%,COC(=O)CNC(=O)COC(=O)/C=C/c1ccc2ccccc2n1
0%,-2%,2,-5.1%,CC[C@H](C)[C@H](NC(N)=O)C(=O)NCCc1ccc(OC)c(OC)c1
6%,-1%,-8,-1.4%,CN(Cc1ccccc1)c1ccc(N2C(=O)CCC2=O)cc1[N+](=O)[O-]
0%,13%,-4,5.4%,Cc1csc2ncc(C(=O)N3CCCc4ccccc43)c(=O)n12
28%,0%,x,0.6%,COc1ccc(C(OCC(O)CNCCc2ccccc2)c2ccc(OC)cc2)cc1 (stereo not drawn)
23%,-5%,-3,1.2%,COc1ccc(CCNc2ncnc3c2[nH]c2cc(OC)c(OC)cc23)cc1OC
1%,1%,1,1.2%,COc1ccc(/C=N/NC(=O)c2cc(=O)[nH]c3ccccc23)cc1OC
-16%,u,-6,u,CCCC(=O)c1ccc2c(c1)OCCO2
-4%,-11%,x,0.0%,Cc1cc(NC(=O)Cn2nc(C(=O)O)c3ccccc3c2=O)c([N+](=O)[O-])cc1C
-5%,9%,3,-0.2%,CC(C)c1nc(SCC(=O)NC(=O)NC(C)(C)C)n[nH]1
x,4%,x,-4.7%,COc1cccc(NC(=O)CN(C)C(=O)c2ccc(-c3cccc(C(F)(F)F)c3)o2)c1
2%,-10%,x,0.1%,O=C(COc1ccc(Br)cc1)N(Cc1cccs1)C1CCS(=O)(=O)C1 (stereo not drawn)
-9%,-1%,10,8.6%,O=C1CC(N2CCN(Cc3ccccc3)CC2)C(=O)N1CCc1ccccc1 (stereo not drawn)
-5%,3%,2,4.4%,C[N+]1([O-])[C@@H]2Cc3cc4c(cc3[C@@H]1Cc1cc3c(cc12)OCO3)OCO4 (stereo partly drawn)
-4%,8%,7,-1.6%,COc1cccc(NC(=O)Cn2c(CCC(=O)O)ccc2-c2ccc(Cl)cc2)c1
x,7%,x,1.6%,Cc1ccc(OCCC(=O)OCC(=O)c2c(N)n(CC(C)C)c(=O)n(C)c2=O)cc1

Already shown: an excerpt of the list.
miR-21 reporter,Rango dissoc inh,GLA inh pH 4.5,Rango complex inh,mol
-51%,1%,x,3.2%,N/C(=N\OC(=O)c1cccc(C(F)(F)F)c1)c1cnccn1
1%,-13%,x,-0.6%,CC(=O)Nc1cc[n+](CC(=O)c2cccc([N+](=O)[O-])c2)cc1
0%,0%,-18,-1.4%,CCCc1nc(SCC(=O)N2CCCc3ccccc32)c2c(=O)n(C)c(=O)n(C)c2n1
-27%,4%,x,4.1%,Cc1ccccc1CNC(=O)COc1ccccc1
3%,6%,-2,-0.4%,COc1cccc(-c2noc(C3CCCN(C(=O)CC(C)(C)C)C3)n2)c1 (stereo not drawn)
-7%,-6%,x,0.0%,Brc1ccc(NC(c2ccccc2)c2ccncc2)cc1 (stereo not drawn)
-1%,11%,x,0.0%,CSCCNC(=O)c1ccc(OC2CCN(S(=O)(=O)N(C)C)CC2)cc1
1%,1%,x,-1.6%,CC1CCCN(C(=O)Cn2nnc(-c3ccc(S(C)(=O)=O)cc3)n2)C1 (stereo not drawn)
-2%,-5%,x,-0.3%,O=C(NC1CC2CCCC(C1)N2Cc1ccccc1)c1cccc(F)c1 (stereo not drawn)
3%,-1%,-10,-0.5%,COC(=O)CNC(=O)COC(=O)/C=C/c1ccc2ccccc2n1
0%,-2%,2,-5.1%,CC[C@H](C)[C@H](NC(N)=O)C(=O)NCCc1ccc(OC)c(OC)c1
6%,-1%,-8,-1.4%,CN(Cc1ccccc1)c1ccc(N2C(=O)CCC2=O)cc1[N+](=O)[O-]

The results go on:
miR-21 reporter,Rango dissoc inh,GLA inh pH 4.5,Rango complex inh,mol
x,-3%,x,0.6%,Cc1ccc(NC(=O)COC(=O)c2c(-c3ccccc3)noc2C)cc1
x,-6%,x,-1.0%,CC1CCCCC1NC(=O)NC(=O)COC(=O)c1ccc(OC(F)F)cc1 (stereo not drawn)
x,22%,x,-3.4%,NC(=O)c1cc([N+](=O)[O-])ccc1NCc1ccccn1
25%,-6%,x,-4.2%,OCCCNc1ncnc2scc(-c3ccc(Cl)cc3)c12
1%,-7%,x,-3.2%,C[C@H](NC(=O)c1nc[nH]c1C(=O)N1CCN(C(=O)OC(C)(C)C)CC1)C(=O)OCc1ccccc1
x,-17%,x,3.6%,O=C(COC(=O)CNC(=O)c1ccc(Br)cc1)Nc1nnc(-c2ccccc2)o1
-1%,-14%,-8,0.2%,O=C(NCCN1CCOCC1)c1ccc2c(c1)N(Cc1cccc(F)c1)C(=O)c1ccccc1S2
-20%,2%,-9,3.4%,O=C(CSc1ccsc1[N+](=O)[O-])N1CCN(c2ccccn2)CC1
-8%,-3%,x,2.3%,COc1ccccc1C1CCN(Cc2ccc(Cl)c(Cl)c2)CC1
x,u,x,1.6%,Nc1c(Cl)cc(C(=O)NC2CC2)cc1Cl
4%,-11%,10,6.1%,O=C(O)CCC1OC(=O)C(O)=C1c1ccccc1 (stereo not drawn)
5%,10%,-11,2.2%,Cc1nnc(NC(=O)c2c(-c3ccccc3Cl)noc2C)s1
13%,0%,2,u,O=C(Cc1ccccc1)Nc1cccc(NC(=O)c2cccs2)c1
-1%,-2%,9,-0.9%,COc1ccc(C(=O)NNC(=O)C2CCCO2)cc1 (stereo not drawn)
-3%,18%,-4,-2.4%,COc1ccc(-c2noc(CN3CCCC(OCc4ccccn4)C3)n2)cc1 (stereo not drawn)
-1%,-8%,2,-2.3%,CCS(=O)(=O)N1CCC(C(=O)NCc2ccc3c(c2)OCO3)CC1
-62%,-2%,-6,-3.8%,COC(=O)c1c(C)[nH]c(C=O)c1-c1ccccc1
-87%,-13%,6,u,O=C1CN(c2nc(-c3cccs3)nc3sc4c(c23)CCCC4)CCN1
1%,-25%,4,4.1%,O=C(CCN1C(=O)c2ccccc2C1=O)N1CCN(Cc2ccccc2)CC1
9%,3%,9,u,COc1ccc2[nH]c(C)c(CCN3C(=O)C4CC=CCC4C3=O)c2c1 (stereo not drawn)
3%,-7%,3,-0.2%,O=S(=O)(c1cccc(F)c1)N1CCN(C(=S)NCc2ccccc2)CC1
-9%,-5%,x,1.1%,C/C(O)=c1/c(=O)nc2cccc3c2=c1c1ccccc1c3=O
0%,-8%,4,1.5%,Cn1c(SCC(=O)NCC2CCCO2)nnc1-c1c[nH]c2ccccc12 (stereo not drawn)

These rows are one share of the data; count on the stated rates, not on these rows.
